# Screens (PubChem BioAssay)
# Ab BasE inh – inhibitors of Acinetobacter baumannii siderophore enzyme BasE | purified BasE, fluorescence polarization binding displacement | inhibition, % (no concentration beside the values) | 84,000 tested, 0.1% active | AID 485350;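 active means both replicates above 25% with normal brightness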;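 further: 0% = negative plate control signal and 100% = positive plate control signal; stock transfer was 100 nL into about 30 µL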
# KSHV LANA nucl – inhibitors of KSHV LANA binding to nucleosomes | FITC-LANA1-23 / chicken nucleosome fluorescence polarization; stronger effect = lower value | 51,000 tested, 0.3% active | z-score (no concentration beside the values);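 active means both repeat wells score below -2 in polarization z-score versus plate sample wells, excluding overly bright wells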;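 further: 100 nL library stock added to about 30 µL; numbers are from one replicate; some results filed as inactive read as strong as hits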
#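 test system = FITC-LANA peptide and chicken nucleosomes | amount = 240 nM purified chicken nucleosomes (480 nM peptide binding sites), final | reagent = 50 nM FITC-LANA1-23 probe | medium = TEN-BT buffer, pH 7.5 | doses = single compound addition by pin transfer, 100 nL per well | timing = 10–45 min, room temperature | detection = fluorescence polarization | repeats = duplicate plates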
# * = called active by the depositor; nt = no result given; & = joins results of further samples. Some of the compounds tested. The share of hits here may be higher or lower than overall.
# Below each compound: KSHV LANA nucl | Ab BasE inh
CCn1c(COC(=O)CCc2c(C)nc3ncnn3c2C)nc2cc(S(=O)(=O)N(C)C)ccc21
    nt | 0.6
Cc1cccc2sc(NC(=O)CN3CSCC3=O)nc12
    nt | 0.0
Cc1ccc2nc(-c3ccccc3)cc(C(=O)Nc3ccccc3)c2c1
    nt | -2.2
CCOC(=O)c1sc(N2N=C(C)CC2=O)nc1C
    -0.4 | -0.1
C/C(=N\NC(=O)C1=NNC(=O)C1C)c1cccs1 (stereo not given)
    -0.15 | 1.9
CNc1nc(-c2cc(C)n(-c3cccc(C(F)(F)F)c3)c2C)cs1
    nt | -2.5
CCCCNC(=O)c1sc2nc(C)cc(C)c2c1-n1cccc1
    -0.23 | 1.4
N[C@@H](C(=O)N[C@@H]1C(=O)N2C(C(=O)O)=C(Cl)CS[C@H]12)c1ccccc1
    0.37&0.43&-0.12&0.3&-0.53 | -3.7&0.8&-4.2
CCOC(=O)Cn1nc[n+]2[nH]c(C)cc(=O)c12
    0.37 | 0.8
Cc1ccc(C2C(C#N)=C(N)OC(C3CC3)=C2C#N)cc1 (stereo not given)
    nt | -4.8
CCOc1cc(C(=O)NCc2ccc3c(c2)n(C)c(=O)n3C)cc(OCC)c1OCC
    -1 | 2.1
C[C@]12CC=C(C#N)[C@@]1(C)CC=C2C#N
    0.6 | 4.7
CSc1sc(C(=O)NC(=O)NCc2cccnc2)c(C)c1-c1ccon1
    -0.11 | 1.9
COc1ccc(OC)c(NC(=O)CC2C(=O)NCCN2C(=O)C(F)(F)F)c1 (stereo not given)
    0.81 | 0.5
CSc1ccc(CCNC(=O)C2CCCN(c3ncnc4c3nc3n4CCCCC3)C2)cc1 (stereo not given)
    1.6 | -3.1
Clc1ccccc1-c1nnc(C(c2ccccc2)N2CCC3(CC2)OCCO3)o1 (stereo not given)
    -0.51 | 2.5
CS(=O)(=O)N(CC(=O)N1CCc2ccccc2C1)c1ccccc1
    nt | -2.9
C=CCNC(=O)Nc1c[nH]c2ccccc2c1=O
    -0.058 | -2.1
Cn1cc(I)c(C(=O)n2cc(Br)cn2)n1
    0.45 | 0.8
COc1cccc(-c2cc(C(=O)NCC(C)C)no2)c1
    -0.77 | 0.6

# Some of these compounds in order of molecular weight, largest number first.
# Below each compound: KSHV LANA nucl | Ab BasE inh
CCn1c(COC(=O)CCc2c(C)nc3ncnn3c2C)nc2cc(S(=O)(=O)N(C)C)ccc21
    nt | 0.6
CCOc1cc(C(=O)NCc2ccc3c(c2)n(C)c(=O)n3C)cc(OCC)c1OCC
    -1 | 2.1
COc1ccc(OC)c(NC(=O)CC2C(=O)NCCN2C(=O)C(F)(F)F)c1 (stereo not given)
    0.81 | 0.5
CCOC(=O)c1sc(N2N=C(C)CC2=O)nc1C
    -0.4 | -0.1
C=CCNC(=O)Nc1c[nH]c2ccccc2c1=O
    -0.058 | -2.1

# (further entries)
# Below each compound: KSHV LANA nucl | Ab BasE inh
CCN1CCSc2ccc(C(=O)Nc3c(F)c(F)c(F)c(F)c3F)cc21
    -0.25 | 3.3
CCCCOC(=O)c1ccc(NC(=O)c2cnccn2)cc1
    -0.53 | 1.5
O=C1NCCNC1Cc1ccc2ccccc2n1 (stereo not given)
    nt | 3.6
COc1ccc(Nc2ncnc3ccccc23)cc1
    nt | 0.6
COCC(C)NC(=O)Nc1c[nH]c2ccccc12 (stereo not given)
    0.013 | -1.2
Cc1nn(CC(C)C)c(Cl)c1C(=O)N1CCCc2ccccc21
    nt | -2.4
CN(Cn1c(=O)oc2cc(Br)ccc21)C1CCCCC1
    0.33 | 4.6
O=C(NCc1ccccc1Cl)C1COc2ccccc2O1 (stereo not given)
    -0.74 | 3.7
O=C1C(c2ccc(I)cc2)=C(O)c2ccccc21
    nt | 3.6
Cc1cccn2c(=O)cc(CN3CCN(S(=O)(=O)c4ccc5c(c4)OCCCO5)CC3)nc12
    nt | 1.8
CN(C)c1ccc(C2NC(=S)NC3=C2N2CCC3CC2)cc1 (stereo not given)
    -0.4 | 1.4
O=C(CC1OCCN(Cc2ccccc2)C1=O)Nc1ccc(Br)cc1Br (stereo not given)
    nt | 1.9
Cc1ccc(-c2csc3ncnc(Sc4nnc(CN5CCCCCC5=O)o4)c23)cc1
    nt | 0.6
COC(=O)Cc1[nH]n(-c2ccccc2)c(=O)c1C(C)=NCc1cccnc1
    2.7 | -2.2
O=C(O)CCNc1ncnc2ccc(Br)cc12
    -0.48 | 0.8
S=C(NCCN1CCOCC1)NC1CCSc2ccccc21 (stereo not given)
    nt | -1.5
Cc1snc(SCc2c(F)cccc2Cl)c1C#N
    0.52 | nt
O=S(=O)(Nc1ccc(O)c(Sc2nc3ccccc3s2)c1)c1ccccc1
    nt | 1.8
Cc1cnc(NS(=O)(=O)c2cccc3nonc23)c(Br)c1
    0.13 | -0.5
O=C1NC(=Nc2ccc(O)cc2)S/C1=C\c1cccc(O)c1
    -1.3 | 3.6

# Molecules from the list above with a thiophene ring, fused or not, in the order listed:
# Below each compound: KSHV LANA nucl | Ab BasE inh
C/C(=N\NC(=O)C1=NNC(=O)C1C)c1cccs1 (stereo not given)
    -0.15 | 1.9
CCCCNC(=O)c1sc2nc(C)cc(C)c2c1-n1cccc1
    -0.23 | 1.4
CSc1sc(C(=O)NC(=O)NCc2cccnc2)c(C)c1-c1ccon1
    -0.11 | 1.9
Cc1ccc(-c2csc3ncnc(Sc4nnc(CN5CCCCCC5=O)o4)c23)cc1
    nt | 0.6

# (listing goes on)
# Below each compound: KSHV LANA nucl | Ab BasE inh
Cn1nnnc1SCC(=O)NC(=O)Nc1ccc2c(c1)OCCO2
    nt | -6.3
Cc1nn(-c2ccccc2)c(C)c1/C=C/C(=O)OCC(=O)c1cccs1
    nt | -0.7
S=c1[nH]c2ccccc2n1CCOc1ccccc1
    0.14 | -0.6
Cc1cc(=O)oc2cc(OCC(O)CN(C)C3CCCCC3)ccc12 (stereo not given)
    nt | -1.8
Cc1cc(NCCN2CCCCC2)c2ccc3ccccc3c2n1
    nt | -30
O=C(COc1ccc(Cl)cc1)NCc1n[nH]c(=S)n1-c1cccc(Cl)c1
    nt | 2.7
CCc1nnc(NC(=O)c2sc3nc4ccc(OC)cc4cc3c2N)s1
    -0.74 | 0.5
NNC(=S)Nc1ccc(C(F)(F)F)cc1Cl
    0.028 | -1.6
CC(=O)OCC1OC(n2ccc3ccccc32)C(OC(C)=O)C(OC(C)=O)C1OC(C)=O (stereo not given)
    0.66 | 1.9
N#Cc1c(SCC(=O)c2ccc(F)cc2)nsc1SCC(=O)c1ccc(F)cc1
    nt | -3.7
CCn1c(-c2cccs2)c(CN(CCOC)C(=O)Nc2ccccc2)c2ccccc21
    -0.93 | 0.3
CCOC(=O)Nc1ccc2c(CN(C)CC(=O)Nc3cccc(C)c3C)cc(=O)oc2c1
    nt | -2.3
O=C1CCC(=O)N1CCn1c2ccccc2c2nc3ccccc3nc21
    0.13 | -2.5
O=C(COC(=O)c1ccc(Cl)cc1)NC1CC1
    nt | 5.4
C=CCNC(=O)C(C)(C)Oc1ccc(Cl)cc1
    0.19 | 1.1
CCOC(=O)N1CCC(NC(=O)c2cc3cc4ccc(OC)cc4nc3o2)CC1
    -0.8 | 0.9
O=C(O)C1CC=CCC1C(=O)N(Cc1ccccc1)c1ccccc1 (stereo not given)
    -1.3 | 2.7
Cn1c(-c2cccs2)c(CNC(=O)NCc2ccccc2)c2ccccc21
    0.77 | -13
O=C(C(Sc1nnc(C2CC2)n1C1CC1)c1ccccc1)N1CCOCC1 (stereo not given)
    nt | 1.9
O=C(/C=C/c1ccco1)Nc1cccc(C(F)(F)F)c1
    -0.63 | -0.2
CCn1c(SCC(=O)N(C)CC(=O)Nc2ccccc2Cl)nnc1-c1ccco1
    nt | 2.3
Cc1ccccc1-c1noc(CSc2ncccn2)n1
    nt | 3.8
CCC(C)NS(=O)(=O)c1ccc(-n2cnnn2)cc1 (stereo not given)
    1 | -4.3
Cc1cc(C(=O)NCc2ccc(N3CCN(C)CC3)cc2)nn1C
    -0.42 | 0.2
Clc1cccc(-c2nnc(-c3ccccc3)o2)c1
    0.96 | 0.4
O=C(O)CC(Nc1ncnc2ccccc12)C(=O)O (stereo not given)
    0.092 | -0.9
COc1ccc2c(COC(=O)CNS(=O)(=O)c3ccccc3)cc(=O)oc2c1
    nt | 0.0
Cc1ccc(C)c(OCC(=O)Nc2ccccc2C#N)c1
    -0.62 | 1.7
COc1ccc(CSc2nnc(SC(C)C(N)=O)s2)cc1 (stereo not given)
    nt | -1.9
Nc1cc(-c2ccccc2)[nH]n1
    1.2 | 1.7
COc1ccc(C2CC(=O)n3nc(-c4ccccc4)nc3S2)cc1OC (stereo not given)
    nt | -0.8
CCOC(=O)c1c(C)c(C#N)c(NC(=O)c2ccc(Cl)cc2Cl)n1-c1ccc(C)cc1
    nt | -0.7
CC(C)NC(=O)COc1ccc(-c2nn(C)c(=O)c3ccccc23)cc1
    0.37 | 2.6
CC(C)n1c(CN2CCN(c3cccc(Cl)c3)CC2)nc2c1c(=O)n(C)c(=O)n2C
    -0.82 | 0.4
COc1cccc(NS(=O)(=O)c2ccc(CN3C(=O)c4cccnc4C3=O)cc2)c1
    0.54 | -1.8
Cc1ccc2c(CC(=O)OCc3cc(Cl)cc4c3OCOC4)coc2c1
    nt | -0.6
CCOC(=O)c1cc(NC(=O)N(CC)C2CCCCC2)c(C)nc1C
    nt | 1.7
CC1CN(C(=O)COC(=O)CC2c3ccccc3CCN2S(=O)(=O)c2ccccc2)CC(C)O1 (stereo not given)
    nt | -1.3
O=C1CCCC(O)=C1N=Nc1cc(C(F)(F)F)ccc1OCC(F)(F)F
    -0.057 | -1.2
Cc1noc2ncn(CC(=O)NCc3ccco3)c(=O)c12
    nt | 0.8
COCCn1c(N)c(N(Cc2ccccc2)C(=O)C2CC3C=CC2C3)c(=O)[nH]c1=O (stereo not given)
    nt | 1.7
CCNC(=O)CN1C(=O)COc2ccc(C)cc21
    0.36 | -4.2
C=CCN(CC=C)S(=O)(=O)c1ccc(NC(=O)c2cccs2)cc1
    0.45 | 2.8
O=c1[nH]cc(NCc2ccccc2)c(=O)[nH]1
    nt | -0.3
COCCCOc1ccnc(CS(=O)c2nc3ccccc3[nH]2)c1C (stereo not given)
    0.21&-0.14 | nt
Cc1ccc(-c2csc(C3=C(O)CN(C4CCCC4)C3=N)n2)cc1
    nt | -4.4
Cc1c(NC=C(C#N)C#N)c(=O)n(-c2ccccc2)n1C
    0.48 | -1.5
Cc1[nH]n(-c2cccc(Cl)c2)c(=O)c1N=O
    nt | 2.7
COc1ccc(OC)c2[nH]c(=O)c(CCNC(=O)C(C)C)cc12
    0.13 | -1.2
Cc1sc2nc(SCC(=O)c3ccc(O)c(O)c3)[nH]c(=O)c2c1C
    nt | 9.4
CC1CCN(c2ccc(N3CCN(S(C)(=O)=O)CC3)nn2)CC1
    -0.22 | 1.6
NC(=O)c1nnc(C(Nc2ccc(F)cc2)c2cccc(Cl)c2)o1 (stereo not given)
    1.2 | -3.1
FC(F)(F)c1cc(-c2ccco2)nc2c(-c3ccccc3)cnn12
    -0.17 | 0.9
Cc1ccc(CNC(=O)c2ccc(Cl)c(S(N)(=O)=O)c2)n1C
    nt | -0.4
O=C(COC(=O)c1cc(Cl)ccc1O)c1ccc(S(=O)(=O)N2CCCCC2)cc1
    nt | -2.5
O=S(=O)(NNc1ccccc1)c1cccs1
    -0.68 | 1.4
CN1CCN(CCOCCOc2ccc(Cl)c(Cl)c2)CC1
    -1.8 | 0.6
c1ccc(-c2ccc(C(c3ccccc3)n3ccnc3)cc2)cc1 (stereo not given)
    0.61&0.035&0.25&0.24 | 1.1
Cc1nc(C)c(-c2ccn[nH]2)s1
    0.58 | 0.3
Cn1c(COc2ccc(Cl)cc2)nnc1SCCN1C(=O)c2ccccc2S1(=O)=O
    nt | 2.4

# (more compounds)
# Below each compound: KSHV LANA nucl | Ab BasE inh
CCn1c(=O)c(=O)[nH]c2cc(C(=O)Nc3cc(Cl)c(N)c(Cl)c3)ccc21
    nt | -0.8
CC(C)(C)C1(C)OC(C(N)=O)C(C(N)=O)O1 (stereo not given)
    0.46 | -2.8
CCN(CC)C(=O)C[n+]1cccc(C(N)=O)c1
    0.79 | -1.4
CN1C(=O)/C(=N\N=C\c2c(O)[nH]c(=O)[nH]c2=O)c2ccccc21
    nt | -0.6
CCOC(=O)c1oc2ccccc2c1CN1CC(C)OC(C)C1 (stereo not given)
    nt | 0.3
COc1ccc(C(=O)NCCSc2ccccn2)cc1
    -0.96 | 1.0
CCOC(=O)c1c(C)n(C)c2ccc(O)cc12
    -0.1 | 0.3
CC(C)C(Nc1ccc(C(F)(F)F)cn1)C(=O)O (stereo not given)
    0.15 | -1.2
CCOC(=O)C1CC(=O)OC12CCCCC2 (stereo not given)
    0.52 | 3.8
Cc1ccc(NC(=O)C23CCC(C2)C(C)(C)C3=O)c(C)c1 (stereo not given)
    2.3 | -1.6
C=CCn1c(SCC(=O)c2ccc(C)cc2)nc2sc(CC)cc2c1=O
    nt | -0.4
O=C(COc1ccc2c(c1)CCC2)NN1CCOCC1
    -1.1 | 1.6
CCC(=O)Nc1c(C#N)c2nc3ccccc3nc2n1CCc1ccccc1
    nt | -11
Nc1cc(C(Cl)=C(Cl)Cl)c(S(N)(=O)=O)cc1S(N)(=O)=O
    -0.21&0.27 | -1.8
CCCN(CCC)C(=O)Cn1ncn2c(cc3ccccc32)c1=O
    0.52 | 3.5
O=C(Nc1nc2ccccc2s1)c1ccc(S(=O)(=O)N2CCOCC2)cc1
    1.1 | -1.4
CC1(C(=O)NC2CCCCCCC2)Cc2ccccc2C(=O)N1CCCN1CCOCC1 (stereo not given)
    -0.012 | 2.8
CCOC(=O)c1oc2ccccc2c1NC(=S)NC(=O)CN1C(=O)CCC1=O
    -0.43 | 2.6
Cc1ccccc1NC(=O)Nc1ccon1
    0.77 | 0.0
